Compound activity (PubChem)
KCNQ2 block: KCNQ2 channel blockers in CHO-K1 cells – cell-based, FluxOR thallium flux, B-score, primary screen (AID 2156); 20 min; active compounds read low; only compounds with negative scores are shown here; some inactives read as strong as hits; B-score at 10 µM; hit rate 1.1% among 310,000;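 active = fluorescence ratio B-score at most minus 3 library SDs, with starting brightness B-score within 2 library SDs, cut at about -5.5 in these data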
Target sequence (O88943 whole entry, looked up): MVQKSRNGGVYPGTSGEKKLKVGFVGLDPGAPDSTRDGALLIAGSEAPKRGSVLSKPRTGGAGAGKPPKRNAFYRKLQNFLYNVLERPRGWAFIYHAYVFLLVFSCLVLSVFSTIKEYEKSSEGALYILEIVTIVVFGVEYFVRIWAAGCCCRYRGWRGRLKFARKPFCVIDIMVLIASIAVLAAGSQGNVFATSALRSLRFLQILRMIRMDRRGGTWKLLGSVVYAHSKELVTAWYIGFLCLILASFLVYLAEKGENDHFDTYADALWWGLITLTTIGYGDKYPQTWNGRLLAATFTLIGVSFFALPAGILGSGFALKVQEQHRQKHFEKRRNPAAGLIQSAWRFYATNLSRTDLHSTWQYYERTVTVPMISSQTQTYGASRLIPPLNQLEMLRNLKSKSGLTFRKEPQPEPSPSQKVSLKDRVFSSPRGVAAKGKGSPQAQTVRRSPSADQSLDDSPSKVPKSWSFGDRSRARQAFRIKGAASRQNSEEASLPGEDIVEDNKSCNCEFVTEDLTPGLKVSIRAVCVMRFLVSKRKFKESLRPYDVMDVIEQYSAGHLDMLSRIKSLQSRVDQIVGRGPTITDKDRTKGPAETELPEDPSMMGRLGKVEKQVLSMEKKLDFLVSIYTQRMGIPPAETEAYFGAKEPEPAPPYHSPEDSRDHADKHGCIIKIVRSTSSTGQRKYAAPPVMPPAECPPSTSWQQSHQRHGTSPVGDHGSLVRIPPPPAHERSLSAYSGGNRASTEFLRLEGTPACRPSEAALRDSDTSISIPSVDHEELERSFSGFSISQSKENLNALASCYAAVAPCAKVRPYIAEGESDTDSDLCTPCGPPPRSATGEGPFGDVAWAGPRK
KCNQ2 block baseline: second read-out of KCNQ2 block, no call of its own (marks repeat the call); B-score; measured here: initial fluorescence intensity artifact check;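 brightness before thallium and not channel activity; 0 = typical well and far values either way flag optical interference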
Starred values were filed as active, the others as inactive; i = inactive. An excerpt, so the mix of outcomes need not match the whole.

entry	KCNQ2 block	KCNQ2 block baseline	SMILES
1	i	-0.13	COC(=O)c1ccc(NC(=O)Cn2nc(C)c3ccccc3c2=O)cc1
2	i	0.09	COC(=O)c1[nH]c2ccc(Cl)cc2c1NC(=O)C1CC1
3	i	1.1	CC1=C(C(=O)OCCOC(C)C)C(c2cc3c(cc2Br)OCO3)CC(=O)N1 (stereo not drawn)
4	i	0.01	CCNC(=S)N1CCC(NC(=O)c2ccco2)CC1
5	i	0.08	CCOC(=O)N1CCN(C(=O)CS(=O)(=O)c2cn(Cc3ccc(F)cc3)c3ccccc23)CC1
6	i	-0.39	COc1ccccc1CNC(=O)CC12CC3CC(CC(Br)(C3)C1)C2
7	i	-1.3	COCc1c(C(=O)N2CCN(c3ccc(C(F)(F)F)cn3)CC2)oc2ccccc12
8	i	-2.2	O=C(CC1C(=O)OCN1C(=O)OCc1ccccc1)OCC(=O)c1ccccc1 (stereo not drawn)
9	i	-3	Nc1c(C(=O)NCc2ccc3c(c2)OCO3)nnn1CC(=O)Nc1ccc(Br)cc1
10	i	0.03	C=CCn1c(CCc2ccc(OC(C)C)cc2)n[nH]c1=S
11	i	0.51	CCCCNC(=O)Nc1ccc(Br)cn1
12	i	0.02	Cc1ccc(C)c(NC(=S)N=Nc2c(O)n(C)c3ccc(S(=O)(=O)N4CCOCC4)cc23)c1
13	i	1.8	FC(F)(F)c1cccc(-c2ccc(/C=N/Nc3nncc(-c4ccccc4)n3)o2)c1
14	i	1.1	Nc1nc(-c2ccccc2)nn1C(=O)c1ccco1
15	i	0.54	Cc1cc(C)cc(NS(=O)(=O)Cc2ccccc2)c1
16	i	-0.58	Cc1cccc(C(=O)NNC(=O)c2cccc(C)c2)c1
17	i	-1.7	COc1ccc(NC(=O)CCCNC(=O)Cn2cnc3sc4c(c3c2=O)CCCC4)cc1OC
18	i	-0.05	O=C(c1cc(-c2ccncc2)nc2ccc(Cl)cc12)N1CCN(Cc2ccc3c(c2)OCO3)CC1
19	i	-0.93	Nc1c(C(=O)NCCN2CCOCC2)c2nc3ccccc3nc2n1CCc1ccccc1
20	i	-0.33	CCC(C)(C)NC(=O)c1ccc(S(=O)(=O)N(C)c2ccccc2OC)cc1
21	i	1.5	CCC1CCCCN1CCCNC(=O)c1ccc2nc(N3CCCCC3)sc2c1 (stereo not drawn)
22	i	0.2	CCN1CCN(Cc2ccc(NC(=O)c3cc(NC(=O)c4cc5cccc(OC)c5o4)cc(OC)c3)cc2C(F)(F)F)CC1
23	i	-0.01	O=C(CC1SC(=Nc2cccc3ccccc23)N(Cc2ccccn2)C1=O)Nc1ccccc1Br (stereo not drawn)
24	i	0.3	COc1ccc(/C=C(\C#N)C(=O)N=CN(C)C)cc1
25	i	-0.57	O=C(COc1ccc(Cl)cc1Cl)NCCC1=CCCCC1
26	i	1.9	COc1cnc(-c2ccccn2)nc1Sc1cccc(Cl)c1
27	i	0.55	CCc1nccn1S(=O)(=O)c1cccc([N+](=O)[O-])c1
28	i	0.38	COc1ccc(OC)c(NC(=O)CSc2nnc(Cn3nnc4ccccc43)n2C)c1
29	i	-2	COc1ccc(C2COC(=O)C2=N)c(NC(=O)c2ccccc2)c1 (stereo not drawn)
30	i	0.68	Cc1nc(/C(N)=N/OC(=O)c2c(-c3ccccc3Cl)noc2C)cs1

Next part (2 carried over from the part before).
entry	KCNQ2 block	KCNQ2 block baseline	SMILES
29	i	-2	COc1ccc(C2COC(=O)C2=N)c(NC(=O)c2ccccc2)c1 (stereo not drawn)
30	i	0.68	Cc1nc(/C(N)=N/OC(=O)c2c(-c3ccccc3Cl)noc2C)cs1
31	i	1.5	COc1ccc(-c2nc(-c3ccccc3)no2)c(OC)c1
32	i	-0.85	COc1ccccc1NC(=O)C/C(C)=N/NC(=O)COc1c(Br)cc(Br)cc1OC
33	i	-0.51	COCCn1c(SCC(=O)Nc2ccccc2)nnc1-c1ccoc1C
34	i	-1.2	COc1cccc(OCCNc2cc(N3CCCCC3)ccc2[N+](=O)[O-])c1
35	i	-1.2	CC(=O)Nc1ccc(S(=O)(=O)N2CCN(c3ncccn3)CC2)cc1
36	i	-0.23	CCCCn1c(SCC(=O)N2CCC(C)CC2)nc2ccsc2c1=O
37	i	0.62	COc1ccc(Cn2c(SC)nc3ccccc32)cc1[N+](=O)[O-]
38	i	1.3	COc1ccc(S(=O)(=O)N2CCN(S(=O)(=O)c3ccc4c(c3)OCCO4)CC2)cc1
39	i	0.43	[O-]/[N+](=C\c1ccncc1)c1ccccc1
40	i	-0.02	Cc1cc(C)n(-c2nc(NC(C)(C)C)nc(NC(C)(C)C)n2)n1
41	i	0.11	O=C(O)CSCC(=O)NCc1c(Cl)cccc1Oc1ccccc1
42	i	0.88	Cc1ccc(-c2cc(C(=O)N/N=C/c3cccnc3)c3ccccc3n2)cc1C
43	i	-0.45	Cn1c(=O)c2c(nc(N3CCCCCC3)n2Cc2cccc3ccccc23)n(C)c1=O
44	i	1.1	COc1cc(/C=N/NS(=O)(=O)c2ccc(C)cc2)ccc1OCc1cccc(C(=O)O)c1
45	i	0.37	CCC(C)(C)NC(=O)C1CCCN1C(=O)NC1CCCCC1 (stereo not drawn)
46	i	-0.09	CCOC(=O)C(=CNc1cc(C)ccc1[N+](=O)[O-])C(=O)OCC
47	i	12	COc1cccc(C2C3CN(C)CC=C3C(C#N)=C(N)C2(C#N)C#N)c1OC (stereo not drawn)
48	i	1.3	CC1CCCCN1C(=O)c1c(Cl)cnn1C (stereo not drawn)
49	i	-0.62	O=C(NCCC1CCCCN1S(=O)(=O)c1ccccc1)C(=O)NCc1ccc(F)cc1 (stereo not drawn)
50	i	-2.3	CCOc1cc(/C=C(\C#N)C(N)=O)ccc1OCc1c(C)no[n+]1[O-]
51	i	2.7	CCOC(=O)CNC(=O)C(NC(=O)C1CCC(C)CC1)C(C)CC (stereo not drawn)
52	i	0.53	Cn1c(SCCCC(=O)c2ccc(F)cc2)nnc1-c1ccncc1
53	i	-0.47	Cc1ccc(N(C(=O)c2snc(C(N)=O)c2N)C(C(=O)NCC2CCCO2)c2c[nH]c3ccccc23)cc1 (stereo not drawn)
54	i	0.96	COc1ccccc1CNC(=O)C1CC(c2cccc([N+](=O)[O-])c2)=NO1 (stereo not drawn)
55	i	-0.7	CC12c3ccccc3C(c3ccccc31)C1C(=O)N(c3ccncc3)C(=O)C12 (stereo not drawn)
56	i	0.84	CCn1cc(C(=O)N2CCN(C3CCCCC3)CC2)c2cc(OC)c(OC)cc2c1=O
57	i	-0.87	CCn1c(COc2ccccc2)nnc1SCC(=O)CC(=O)Nc1ccccc1OC
58	i	-1.8	COC(=O)NCCOc1nc(N(C)C)nc(N(C)C)n1
59	-5.7*	0.67*	CCc1cc(C(=O)c2ccc(Br)cc2)c(NC(=O)CN(CC)CC)s1
60	i	-1.5	Cc1cc(C#N)c(C)n1-c1cc(S(=O)(=O)N2CCOCC2)ccc1N1CCCC1

Random excerpt: 7 entries already listed, in no set order.
entry	KCNQ2 block	KCNQ2 block baseline	SMILES
37	i	0.62	COc1ccc(Cn2c(SC)nc3ccccc32)cc1[N+](=O)[O-]
41	i	0.11	O=C(O)CSCC(=O)NCc1c(Cl)cccc1Oc1ccccc1
57	i	-0.87	CCn1c(COc2ccccc2)nnc1SCC(=O)CC(=O)Nc1ccccc1OC
33	i	-0.51	COCCn1c(SCC(=O)Nc2ccccc2)nnc1-c1ccoc1C
56	i	0.84	CCn1cc(C(=O)N2CCN(C3CCCCC3)CC2)c2cc(OC)c(OC)cc2c1=O
35	i	-1.2	CC(=O)Nc1ccc(S(=O)(=O)N2CCN(c3ncccn3)CC2)cc1
50	i	-2.3	CCOc1cc(/C=C(\C#N)C(N)=O)ccc1OCc1c(C)no[n+]1[O-]

(list continues)
entry	KCNQ2 block	KCNQ2 block baseline	SMILES
61	i	-0.06	CC(=O)Nc1ccc(S(=O)(=O)NCC(=O)OCC(=O)NC23CC4CC(CC(C4)C2)C3)cc1
62	i	-1.4	OCCC1CN(Cc2cccn2-c2ncccn2)CCN1Cc1ccc(F)cc1 (stereo not drawn)
63	i	0.33	O=C(O)c1ccc2c(=O)n(-c3ccc(F)c(Cl)c3)c(=S)[nH]c2c1
64	i	1.4	Cc1occc1C(=O)Nc1cccc(C(=O)O)c1
65	-9.5*	2.4*	CN(C)CCNC(=O)/C(=C/c1ccc(-c2ccc(Cl)cc2Cl)o1)NC(=O)c1ccccc1
66	i	0.28	Cc1ccc(C)c(N2CCN(C(=O)c3ccc4c(=O)n5c(nc4c3)CCCCC5)CC2)c1
67	i	-1.2	COc1cccc(-c2cc(C(=O)N3CCCc4ccccc43)no2)c1
68	i	-1.4	O=C(CCNC(=O)c1ccccc1Cl)Nc1nnc(C2CC2)s1
69	i	1.1	COc1ccccc1S(=O)(=O)Cc1ccc(C(=O)NCCCN2CCN(c3ccc(F)cc3)CC2)o1
70	i	-0.41	CC(C)NC(=O)C1CCN(C(=O)c2cc3sccc3n2Cc2ccc(F)cc2)CC1
71	i	-0.31	COC(=O)c1cc(Br)c(=O)n(-c2ccc(F)cc2)c1
72	i	0.02	O=C(CN1CCN(S(=O)(=O)c2ccccc2)CC1)NC(=O)NCc1ccco1
73	i	-1.6	Cc1cccc(OCC(=O)N(Cc2ccc(N(C)C)cc2)C2CCS(=O)(=O)C2)c1 (stereo not drawn)
74	i	-1.7	Cc1nc(-c2ccc(F)cc2)c(CC(=O)Nc2cc(S(=O)(=O)N3CCCCC3)ccc2C)s1
75	i	1.1	O=C(N/N=C/C(Cl)=C\c1ccccc1)c1ccco1
76	i	-0.69	CC(C)(C)c1cc(CCC(=O)NCc2ccncc2)cc(C(C)(C)C)c1O
77	i	0.57	CC1=C(C(=O)Nc2cc(C)ccc2C)C(c2cccs2)NC(=S)N1 (stereo not drawn)
78	i	0.41	COc1ccc(-c2cc(=O)oc3cc(OCC(=O)N(C)C)ccc23)cc1
79	i	1.8	Cc1ccc(S(=O)(=O)N2CCN(S(=O)(=O)N3CCCCC3)CC2)cc1C
80	i	-2.5	c1ccc(-c2ccccn2)nc1
81	i	0.19	NC(=O)CC(NC(=O)c1ccccc1)c1ccc(N2CCC(Cc3ccccc3)CC2)c([N+](=O)[O-])c1 (stereo not drawn)
82	i	2.1	COc1ccccc1NS(=O)(=O)c1cc(NC(=O)C(C)C)ccc1N1CCCCC1
83	i	-1.1	O=C(c1ccc2c(c1)N(Cc1ccc(F)cc1)CCS2)N1CCOCC1
84	i	0.16	S=c1[nH]nc(COc2ccc(Cl)cc2)n1Cc1ccccc1
85	i	-0.61	CCOc1cc(/C=N/O)ccc1OCc1ccccc1F
86	i	-0.09	Cn1c(O)c(N=Nc2ccc(F)cc2)c2ccccc21
87	i	0.02	O=C(CNC1CCCC1)Nc1cc(Cl)ccc1[N+](=O)[O-]
88	i	-0.07	COc1ccc(CCNC(=O)c2nnn(CC(=O)Nc3cccc(F)c3)c2N)cc1OC
89	-6.2*	-1*	Cc1csc2nc(CNC(=O)c3cccc(C(F)(F)F)c3)cn12
90	i	0.39	CCN(c1ccccc1)c1cc(C)nc2ncnn12

Two entries from above, with tabs.
cpd	Molecule	KCNQ2 block	KCNQ2 block baseline
26	COc1cnc(-c2ccccn2)nc1Sc1cccc(Cl)c1	i	1.9
27	CCc1nccn1S(=O)(=O)c1cccc([N+](=O)[O-])c1	i	0.55

Going on with the list.
entry	KCNQ2 block	KCNQ2 block baseline	SMILES
91	i	-0.68	CC(C)c1ccc(NC(=O)Cn2c(=O)oc3cccnc32)cc1
92	i	5	c1cn(CCCNc2ncnc3sc4c(c23)CCC4)cn1
93	i	2.1	CC(C)N(C(=O)Cn1cc(SCC(=O)N2CCCC2)c2ccccc21)C(C)C
94	i	0.35	CC(=O)Nc1ccc(S(=O)(=O)Oc2cccc(/C=N/N=C3/NC(=O)C(CC(=O)O)S3)c2)cc1 (stereo not drawn)
95	i	1.2	COc1cc(/C=C2\SC(N3CCCCC3)=NC2=O)cc(OC)c1OC
96	i	0.05	CCOc1ccc(OCCOCCOc2c(Cl)cccc2Cl)cc1
97	i	2.1	O=S(=O)(c1ccccc1)N1CCN=C1SCc1ccc(Cl)cc1
98	i	0.42	C=C(C)Cc1c(C)nc(-c2ccccc2)[nH]c1=O
99	-7.9*	-1.5*	Cc1ccc(S(=O)(=O)NC(CC(C)C)C(=O)Oc2ccc3c4c(c(=O)oc3c2)CCC4)cc1 (stereo not drawn)
100	i	-0.25	CCc1ccc2c(c1)C1(SC(NC(C)=O)=NN1C(C)=O)C(=O)N2C(C)C (stereo not drawn)
101	i	-0.24	COc1ccc(Cc2nnc(SCC(=O)c3ccccc3)o2)cc1
102	i	0.05	CN1C(=O)C2(Oc3ccccc3C3CC(c4ccccc4)=NN32)c2ccccc21 (stereo not drawn)
103	i	0.01	COCCN1Cc2cccc(C(=O)Nc3cccc(C)c3C)c2C1=O
104	i	0.18	O=C1/C(=C/c2ccco2)SC(=S)N1CCC(=O)N1CCCCC1CCO (stereo not drawn)
105	i	0.39	Cc1nc(NNC(=O)c2ccc([N+](=O)[O-])cc2)cc(-c2ccccc2)n1
106	i	-1.4	COc1ccc(NC(=O)C2CC(=O)n3ncnc3N2)cc1 (stereo not drawn)
107	-5.6*	-1.3*	c1ccc(-c2nc3c4ccccc4ccn3c2CN2CCCCC2)cc1
108	i	0.21	Cc1cc(N(C)C)cc(C)[n+]1[O-]
109	i	-1.7	COc1ccc(NC(=O)C(C)N2C(=O)c3ccccc3C2=O)cc1S(=O)(=O)N1CCOCC1 (stereo not drawn)
110	i	2.3	CC(NC(=O)c1ccco1)C(=O)OCc1cccc(Cl)c1 (stereo not drawn)
111	i	-0.29	Cc1ccc(NC2=NC(c3ccc(F)cc3)n3c(nc(C)cc3=O)N2)c(C)c1 (stereo not drawn)
112	i	1.2	COc1ccc(S(=O)(=O)N2CCOCC2)cc1N=Nc1sc(N)nc1-c1ccccc1
113	-7.1*	-2.2*	CCc1ccc2oc(C(=O)NCC(c3ccc(OC)cc3)N3CCCCC3)c(C)c2c1 (stereo not drawn)
114	i	0.01	Cc1nnc(NC(=O)CSc2ccc([N+](=O)[O-])cn2)s1
